Compound activity deposited in PubChem by several laboratories.
UCH37 DUB inh = blocks the human deubiquitinase UCH37; Q9Y5K5; purified proteasome/UCH37, Ub-AMC cleavage fluorescence; inhibition, % (no concentration beside the values); 330,000 tested, 0.33% active;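 active = mean of two replicates above 20%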;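 note: 0% = compound-free wells with enzyme and 100% = wells lacking proteasome; stock transfer was 100 nL into about 20 µL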
Target sequence (Q9Y5K5 whole entry, looked up): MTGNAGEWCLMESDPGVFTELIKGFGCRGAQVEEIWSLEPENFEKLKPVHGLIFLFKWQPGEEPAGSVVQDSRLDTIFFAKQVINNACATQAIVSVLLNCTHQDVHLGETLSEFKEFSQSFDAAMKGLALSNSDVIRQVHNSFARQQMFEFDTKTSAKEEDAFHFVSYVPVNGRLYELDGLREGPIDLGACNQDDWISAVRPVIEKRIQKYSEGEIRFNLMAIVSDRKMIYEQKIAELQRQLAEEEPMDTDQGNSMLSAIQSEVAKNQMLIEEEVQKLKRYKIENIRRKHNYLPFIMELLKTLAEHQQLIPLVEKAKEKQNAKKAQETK
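Material: Human UCH37 enzyme supplied as purified proteasome complex | Schedule: 30 min compound-proteasome preincubation then 25 min substrate reaction, room temperature | Detection: AMC fluorescence from Ub-AMC cleavage, excitation 355 nm, emission 460 nm | Benchmarks: Wells without proteasome as full block, compound-free enzyme plus substrate as uninhibited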
MLL AF4-AF9 inh = blocks AF4 peptide binding to human AF9; P42568; AlphaScreen, biotin-AF4 peptide binding to FLAG-AF9; inhibition, % at 10 µM; 350,000 tested, 0.47% active; AID 651704;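 active = every replicate reaching a set inhibition limit, whatever the replicate mean, cut at about 25% in these data; inconclusive = mean inhibition reaches that limit but some replicates miss it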;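 note: 0% = plate neutral control median and 100% = total signal loss; the record names both 10 and 1 µM as test concentration; the first replicate is given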
Target sequence (P42568 whole entry, looked up): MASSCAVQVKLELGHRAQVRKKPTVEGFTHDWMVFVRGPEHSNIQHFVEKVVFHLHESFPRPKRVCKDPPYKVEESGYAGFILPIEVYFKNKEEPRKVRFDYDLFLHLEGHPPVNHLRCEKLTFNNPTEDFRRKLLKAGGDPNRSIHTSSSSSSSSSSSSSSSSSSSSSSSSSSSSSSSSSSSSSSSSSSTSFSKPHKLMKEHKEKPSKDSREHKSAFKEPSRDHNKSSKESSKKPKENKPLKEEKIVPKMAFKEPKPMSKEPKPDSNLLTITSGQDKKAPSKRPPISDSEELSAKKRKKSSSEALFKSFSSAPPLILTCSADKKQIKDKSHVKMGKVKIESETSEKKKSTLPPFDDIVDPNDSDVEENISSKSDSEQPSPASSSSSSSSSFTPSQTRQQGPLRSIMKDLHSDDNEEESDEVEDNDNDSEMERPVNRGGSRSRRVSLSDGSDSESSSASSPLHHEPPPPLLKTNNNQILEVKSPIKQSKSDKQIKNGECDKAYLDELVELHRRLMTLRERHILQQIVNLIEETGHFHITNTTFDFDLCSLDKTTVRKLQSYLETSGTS
HNF4A DNA FP = change in binding of human HNF4 alpha to DNA; 360,000 tested, 0.3% active; activity change, % at 10 µM; P41235; HNF4a-FITC DNA binding, fluorescence polarization, 1 h; in the data active = activity change above about 30%, passing the limit was not always enough;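 note: controls were the assay level and a saturating level of protein; the project sought stronger binding though the title names inhibitors; some compounds called inactive have numbers as strong as hits; positive values seem to mean higher polarization but the record does not say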
Vif TR-FRET = inhibitors of Vif binding to APOBEC3G peptide, primary screen, biochemical, TR-FRET, GST-Vif 1-94, biotin-A3G peptide, dose response retest (AID 1117319). TR-FRET GST-Vif / biotin-A3G peptide binding; higher % means a stronger effect; test concentration not given here; strong numbers were not always called active. one-dose inhibition, %; IC50 in µM for titrated hits. 260,000 tested, 0.57% active;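 active = above the screen mean plus three standard deviations and confirmed in dose response; inconclusive = results disagree or hit not tested in dose response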;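 note: Vif residues 1-94 fused to GST binding biotinylated APOBEC3G peptide 110-148; 0% = full assay without inhibitor and 100% = GST in place of GST-Vif; retest series ran down from 100 µM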
FGF22 binding = binders of recombinant human FGF22 by thermal shift | SYPRO orange fluorescence; percent of sucrose octasulfate shift, DMSO zero | calls only at 9.99 µM | AID 651658 | 340,000 tested, 1.5% active;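 active = melting point raised past a set limit in the mean and every replicate; inconclusive = no clear call; three in four hits are not shown here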
RanGTP-Imp inh = inhibitors of RanGTP-importin-beta interaction, primary screen, biochemical, FRET, CFP-Ran, YFP-importin-beta, homogeneous; cell-free CFP-Ran/YFP-importin-beta FRET ratio; inhibition, % (no concentration beside the values); 300,000 tested, 1.1% active; AID 2216;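 active = most replicates above 15%; inconclusive = exactly half above 15%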;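 note: 0% = DMSO wells and 100% = Ran loaded with GDP instead of GTP; wells of about 40 µL received 100 nL stock; the first replicate is given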
Ecoli growth = inhibitors of Escherichia coli growth; OD600 absorbance (test concentration not listed); OD600, 23 h; active compounds read low; 330,000 tested, 0.21% active;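 active = OD600 absorbance below the run mean of sample wells minus 3.6 SD, in any replicate, cut at about 0.56 in these data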;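 note: stock transfer was 300 nL into about 60 µL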
Starred values were filed as active, the others as inactive; i = inactive; ? = inconclusive; . = not tested or not shown; & = joins results of further samples.

canonical_smiles	UCH37 DUB inh	MLL AF4-AF9 inh	HNF4A DNA FP	Vif TR-FRET	FGF22 binding	RanGTP-Imp inh	Ecoli growth
O=C(COC(=O)c1ccccc1Br)NCCN1C(=O)CSC1=O	1.6	-3.1	2.2	-10.3%	i	-5.1	0.689
CCOc1cccc(C(=O)N(Cc2cccc(F)c2)C2CCS(=O)(=O)C2)c1 (stereo not given)	2.2	0.0	5.7	-7.4%	i	-1.5	0.705
COc1ccc(NC(=O)c2ccc(COc3ccccc3)o2)cc1	0.8	.	-4.2	25.6%	.	-0.7	0.71
COc1ccc(C(=O)NCCS(=O)(=O)NC(C)c2ccccc2)cc1 (stereo not given)	2.7	11.0	-0.1	2.4%	i	3.0	0.705
COc1ccccc1NC(=O)NC1(C(=O)N2CCCCC2)CCCCC1	1.5	9.9	-1.0	.	i	-3.0	0.701
COc1ccc(C(=O)CSc2nnc(-c3ccco3)c(-c3ccco3)n2)cc1	6.4	-2.0	-19.5	.	i	-1.3	0.677
O=c1c2nnn(Cc3ccccc3)c2ncn1C/C=C/c1ccccc1	3.5	-3.2	-1.9	-0.5%	i	-1.5	0.76
O=C(Cc1c(F)cccc1Cl)Nc1ccc(S(=O)(=O)NCC2CCCO2)cc1 (stereo not given)	-0.8	-0.3	-2.0	.	i	5.9	0.692
COCCSc1nnc(NC(=O)CS(=O)(=O)c2ccc(C)cc2)s1	3.5	0.3	2.0	.	i	2.9	0.658
O=C(COc1ccc2c3c(c(=O)oc2c1)CCCC3)N1CCN(c2ccc(F)cc2)CC1	-11.9	-3.5	-2.0	-2.1%	i	2.7	0.719
Cc1cccc(C)c1NC(=O)C(c1cccc2ccccc12)n1c(=O)c(-c2cc3ccccc3[nH]2)nc2ccccc21 (stereo not given)	.	-17.2	1.8	.	i	.	.
O=c1[nH]c(=O)c2nnc(N/N=C/c3ccccc3F)nc2[nH]1	.	.	2.0	9.4%	i	-3.9	.
CCOc1ccc(N(C(=O)c2cnccn2)C(C(=O)NC2CCCCC2)c2ccc(O)cc2)cc1 (stereo not given)	1.1	1.5	2.3	4.0%	i	-4.2	0.716
CCc1ccc(C(C)NC(=O)c2ccncc2)cc1 (stereo not given)	4.6	-25.9	2.1	.	i	5.2	0.693
C[C@]12c3[nH]c4ccccc4c3CCN1C(=O)C(CC(=O)NCCCn1ccnc1)C[C@@H]2C(=O)N1CCOCC1 (stereo not given in full)	-2.3	-3.8	-2.8	-2.0%	i	.	0.69
CCOCCCNC(=O)Cn1cnc2c(cnn2-c2ccc(OC)cc2)c1=O	.	1.0	-0.9	16.4%	i	0.4	.
CCC(=O)N(CCC1(c2ccccc2OC)CCOC(C(C)C)C1)Cc1ccco1 (stereo not given)	2.9	.	4.5	3.8%	i	1.9	0.63
Cc1cccc(/C=N/NC(=O)Cc2cccs2)c1	.	0.4	-1.0	11.4%	i	-2.0	.
CC1=CC2=NC(=O)CC(C)(C(=O)N(CC(=O)NC3CCCC3)c3ccccc3F)N2C=C1 (stereo not given)	.	0.0	-3.7	.	i	3.9	.
Cc1cc2cc(CCNS(C)(=O)=O)c(=O)[nH]c2cc1C	-1.5	.	-0.5	-2.0%	.	2.1	0.713
NC(=O)C1CCN(C(=O)C2CCC(=O)N(CC3CCCCC3)C2)CC1 (stereo not given)	6.7	-0.6	-1.5	.	i	-0.5	0.684
COc1c2c(c(OC)c3ccccc13)[C@@]1(OC2)O[C@H](CCO)C[C@H](O)[C@H]1O	.	1.6	2.5	.	i	.	.
CCc1nnc(NC(=O)CS(=O)(=O)c2ccccc2)s1	2.7	1.0	0.2	.	i	1.2	0.689
CN(C)CCCNc1ncnc2oc(-c3ccccc3)c(-c3ccccc3)c12	-61.4	15.0	0.0	-4.0%	i	-2.3	0.665

An excerpt of these results, with values under each structure.
Every second line gives: UCH37 DUB inh, MLL AF4-AF9 inh, HNF4A DNA FP, Vif TR-FRET, FGF22 binding, RanGTP-Imp inh, Ecoli growth
> CC1=CC2=NC(=O)CC(C)(C(=O)N(CC(=O)NC3CCCC3)c3ccccc3F)N2C=C1 (stereo not given)
 : ., 0.0, -3.7, ., i, 3.9, .
> CCc1nnc(NC(=O)CS(=O)(=O)c2ccccc2)s1
 : 2.7, 1.0, 0.2, ., i, 1.2, 0.689
> Cc1cc2cc(CCNS(C)(=O)=O)c(=O)[nH]c2cc1C
 : -1.5, ., -0.5, -2.0%, ., 2.1, 0.713

(more compounds)
canonical_smiles	UCH37 DUB inh	MLL AF4-AF9 inh	HNF4A DNA FP	Vif TR-FRET	FGF22 binding	RanGTP-Imp inh	Ecoli growth
CC1CCN(S(=O)(=O)c2ccc(C(=O)N3CCCC(C(F)(F)F)C3)cc2)CC1 (stereo not given)	0.6	0.3	-0.5	1.5%	i	5.5	0.697
O=C(COc1ccccc1-c1ccccc1)N/N=C/c1cccnc1	.	5.0	3.4	-2.1%	i	1.5	.
COc1ccccc1C1NC=C([N+](=O)[O-])C=C1[N+](=O)[O-] (stereo not given)	8.5	4.1	2.7	5.3%	i	.	0.691
Cc1ccc(NC(=O)N2CCCC2C(=O)NCC2CCCCC2)cc1 (stereo not given)	1.3	0.0	-1.4	.	i	4.3	0.688
COc1ccc(N=Nc2cnc(C)nc2-c2ccccc2)cc1	7.9	.	1.7	30.8%	.	2.4	0.77
O=C(O)c1nn(-c2cccc(Cl)c2)c(=O)cc1O	5.0	-0.2	-3.5	31.2%	i	-4.7	0.69
OCCCn1c(-c2ccccc2)nc(=S)c2c1CCCC2	11.0	.	4.8	31.3%	.	5.4	0.678
Cc1ccc(C(=O)C2OC(=O)C(C)(C)C(=O)C2(C)C)cc1 (stereo not given)	0.6	.	-1.6	0.3%	.	0.8	0.734
CC(C)Sc1ccccc1C(=O)Nc1ccc2c(c1)n(C)c(=O)n2C	1.9	-5.6	-2.1	.	i	5.0	0.594
CCCOc1ccc(-c2nnn(CC(=O)N3CCCC(C)C3)n2)cc1 (stereo not given)	5.0	-0.4	-3.9	4.4%	i	?	0.689
O=C(CSc1nnc(-c2ccc(S(=O)(=O)N3CCOCC3)cc2)o1)c1ccccc1F	2.3	.	-0.3	23.2%	.	2.2	0.749
O=C1CC(N2CCN(c3ccccn3)CC2)C(=O)N1CC(c1ccccc1)c1ccccc1 (stereo not given)	-1.8	.	1.0	.	.	?	0.713
COC(=O)CN(C(=S)Nc1ccc(F)cc1)C1CC(=O)N(c2ccccc2)C1=O (stereo not given)	.	.	-2.7	6.2%	.	0.6	.
O=C(C1CCCCC1)N1CCc2ccccc21	1.2	0.3	1.9	3.7%	.	-1.5	0.678
O=C(C[n+]1ccccn1)c1ccccc1	2.9	7.0	3.7	.	i	-1.8	0.686
COc1ccc(Nc2nc(-c3cccc([N+](=O)[O-])c3)nc3ccccc23)c(OC)c1	5.9	-2.1	-1.0	-2.2%	i	1.1	0.707
CCOC(=O)c1cnc(-n2nc(C)cc2C)nc1Nc1ccc(N(C)C)cc1	3.3	.	3.7	24.8%	.	-0.8	0.707
Cc1ccnc(NC(=O)c2cc3ccccc3oc2=O)c1	-1.7	0.2	-0.1	-3.2%	i	2.0	0.705
CC1CCN(c2nc3c(N)ncnc3n2[C@@H]2O[C@H](CO)[C@@H](O)[C@H]2O)CC1	0.2	0.0	-3.5	1.7%	i	-0.1	0.669
CC(=O)NCCNc1nc(NCC2CC2)nc2cc(-c3ccccc3)sc12	.	1.3	4.2	.	i	.	.
N#Cc1ccc(N2CCc3ccccc3C2)c([N+](=O)[O-])c1	6.0	.	0.6	.	.	-1.2	0.675
CCNc1ccc(S(=O)(=O)C(F)(F)F)cc1NC(=O)C12CCC(CC1)C2	0.2	-2.8	-1.9	-2.4%&0.3%	i	-3.2	0.719
CN(C)/C=C(\C(=O)c1cccc(Cl)c1)c1nnnn1-c1ccccc1	7.2	0.2	1.0	-11.9%	i	1.7	0.63
CSc1ncnc2c1ncn2CCCNCc1ccccc1	.	-2.0	-5.7	-5.9%	i	.	.
CC(/C=N/n1c(-c2cccnc2)n[nH]c1=S)=C\c1ccco1	.	-3.5	-6.6	?	i	1.2	.
Cc1nc2ccccc2c(=O)n1NC(=O)Nc1ccccc1	1.8	.	-0.6	1.3%	.	2.1	0.641
CCCNC(=O)c1onc(CSc2ccc(Cl)cc2)c1C(=O)NCC1CC1	0.9	-0.3	7.1	.	i	-1.5	0.677
COc1ccc2oc(C(=O)NCCN3CCOCC3)c(C)c2c1OC	-90.7	-1.2	4.2	.	i	1.8	0.684
COCCCn1c(SCC(=O)Nc2nc3ccccc3s2)nnc1-c1ccoc1C	1.3	.	6.8	11.1%	.	2.7	0.675
Cc1cccc(N(CC(=O)Nc2ccccc2F)S(C)(=O)=O)c1	0.0	.	2.5	4.1%	.	1.9	0.688
COc1ccc(NC(=O)N(C)C[C@H]2Oc3c(NS(=O)(=O)c4cccs4)cccc3C(=O)N([C@H](C)CO)C[C@@H]2C)cc1	4.7	0.8&2.6	-1.0	.	i	.	.
CC(=O)C(C)Oc1ccc2c3c(c(=O)oc2c1)CCCCC3 (stereo not given)	-290.7	.	-2.3	25.4%	.	-2.7	0.651
CCOC(=O)c1sc2nc(C3CC3)cc(-c3ccc(F)cc3)c2c1N	-196.6	.	-0.6	-12.4%	.	6.7	0.737
c1ccc(CN2CCC3(CC2)Nc2ccccc2CO3)cc1	2.2	.	11.9	-2.0%	.	4.3	0.66
CCN(C(=O)CSc1cc(C)c2ccccc2n1)c1c(N)n(Cc2ccccc2)c(=O)[nH]c1=O	-1.3	-0.9	-0.4	25.6%	i	-2.3	0.646
CCOc1ccc(CN2CCN(C3CCC3)CC2CCO)cc1 (stereo not given)	2.9	-0.6	3.3	.	i	2.1	0.686
COc1cccc(NC(=O)CS(=O)(=O)Cc2nc(-c3ccc(C)cc3)oc2C)c1	-0.2	-7.1	-1.2	.	i	10.2	0.632
c1csc(Cc2nc3ccccc3[nH]2)c1	2.7	9.1	2.7	2.7%	i	-2.4	0.611
Cc1cc(C)c(C2=CSC3=NS(=O)(=O)CCN23)c(C)c1	1.5	0.6	1.6	0.6%	i	0.5	0.729
CCN1CCN(C(=O)c2ccc3c(c2)N(Cc2ccccc2)C(=O)c2ccccc2S3(=O)=O)CC1	2.8	8.5	-2.6	.	i	-2.0	0.719
COc1ccc(OC)c(Nc2nc(NCc3ccco3)nc(N)c2[N+](=O)[O-])c1	2.2	-2.0	-2.9	.	i	-5.3	0.712
O=C(N/N=C/c1c[nH]c2ccccc12)c1ccc([N+](=O)[O-])cc1Cl	.	.	1.0	2.8%	.	6.8	.

A portion of the library; count on the stated rates, not on these rows.
